# High-throughput results from PubChem.
# PV pol inh – inhibitors of poliovirus RNA polymerase binding and polymerization | % elongation, % (compound at 16.7 µg/mL) | 150,000 tested, 0.66% active | AID 588519 | poliovirus polymerase elongation, fluorescence polarization; active compounds read low | P03300; in the data active = % elongation below about 90%; also: some results filed as inactive read as strong as hits
# Target sequence (P03300 1749-2209 limits assumed): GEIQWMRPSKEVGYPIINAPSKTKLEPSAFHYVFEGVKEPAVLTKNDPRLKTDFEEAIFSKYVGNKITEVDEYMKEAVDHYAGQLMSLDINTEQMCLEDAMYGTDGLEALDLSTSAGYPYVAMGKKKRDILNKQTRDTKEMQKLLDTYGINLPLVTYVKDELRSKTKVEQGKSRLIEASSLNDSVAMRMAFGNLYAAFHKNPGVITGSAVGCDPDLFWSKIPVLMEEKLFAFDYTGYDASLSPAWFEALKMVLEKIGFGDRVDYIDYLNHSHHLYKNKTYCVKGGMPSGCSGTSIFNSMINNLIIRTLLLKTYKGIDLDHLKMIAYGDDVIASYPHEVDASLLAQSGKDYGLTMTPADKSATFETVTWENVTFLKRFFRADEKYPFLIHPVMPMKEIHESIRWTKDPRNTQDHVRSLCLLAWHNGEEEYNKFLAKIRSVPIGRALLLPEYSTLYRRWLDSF
# PV pol inh intensity – second read-out of PV pol inh, no call of its own (marks repeat the call); % elongation; measured here: total intensity read-out; formula for this scale not given here;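 total fluorescence in place of polarization; lower means less elongation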
# The depositor's hits bear a star. An excerpt; count on the stated rates, not on these rows.
SMILES	PV pol inh intensity	PV pol inh
COc1ccc(NC(=O)CN2C(=O)COc3ccc(S(=O)(=O)N4CCCCCC4)cc32)cc1	98	100
Cc1ccc(NC(=O)CN2CCN(C3CCCCC3)C(=O)C2=O)cc1C	108	105
CC(C)c1nn2c(=O)cc(COC(=O)c3cccc(NC(=O)CCc4ccccc4)c3)nc2s1	113	110
Cc1cccc(NC(=O)C(=O)c2cc(C)n(-c3ccccc3)c2C)c1C	113	115
O=C(CSc1nc(=O)n(Cc2ccccn2)c2c1CCC2)Nc1cccc(Cl)c1	110	110
CCOc1ccc(NC(=O)NCc2ccc3c(c2)CCN3C(C)=O)cc1	105	103
NC(=O)C1CCN(S(=O)(=O)c2cc3c(cc2Cl)NC(=O)CO3)CC1	108	108
Cc1ccc2ccc3cc(C(=O)Nc4ccc(C)c(F)c4)nc3c2[nH]1	107	102

# Gathered by group: the entries above with sulfur (four)
SMILES	PV pol inh intensity	PV pol inh
COc1ccc(NC(=O)CN2C(=O)COc3ccc(S(=O)(=O)N4CCCCCC4)cc32)cc1	98	100
CC(C)c1nn2c(=O)cc(COC(=O)c3cccc(NC(=O)CCc4ccccc4)c3)nc2s1	113	110
O=C(CSc1nc(=O)n(Cc2ccccn2)c2c1CCC2)Nc1cccc(Cl)c1	110	110
NC(=O)C1CCN(S(=O)(=O)c2cc3c(cc2Cl)NC(=O)CO3)CC1	108	108

# Next part:
SMILES	PV pol inh intensity	PV pol inh
CC(C)CCOc1ccc(C(=O)Nc2sc3c(c2C#N)CCCCC3)cc1	94	99
COCCn1c(CNC(=O)c2cccc(N(C)C)c2)nc2cccnc21	107	102
CCOC(=O)c1c(S(=O)(=O)N2CCCC(C(=O)Nc3cccc(Cl)c3)C2)c(C)n(C)c1C (stereo not given)	108	109
CCN(C(=O)Cn1cnc2onc(-c3ccc(F)cc3)c2c1=O)c1cc(C)ccc1C	109	103
Cn1ccc2c(OCC(=O)NCc3ccc(F)cc3)cccc2c1=O	112	110
Cc1cccc(C(=O)Nc2ccc(-c3nc4ncccc4o3)cc2C)c1	106	107
COc1ccc(-c2nnc(SCC(=O)Oc3cccc(C)c3C)o2)cc1	111	107
COc1cccc(CNC(=O)c2ccc(-c3nc(CS(=O)(=O)c4ccccc4)c(C)o3)cc2)c1	106	103
O=C(Nc1nc2ccc(Cl)cc2s1)c1ccc(S(=O)(=O)N2CCCC2)cc1	100	112
CCc1cccc(NC(=O)Cn2nc(-c3ccc(OC)cc3)ccc2=O)c1	108	110
O=C(CSc1nc2c(c(=O)[nH]1)CN(Cc1ccc3c(c1)OCO3)CC2)Nc1ccccc1Cl	116	116
CCc1ccccc1NC(=O)c1cnc2sc(N3CCOCC3)nn2c1=O	129	124
CC(=O)c1ccc(NC(=O)CCc2c(C)nn(-c3ccc(N4CCCCC4)nn3)c2C)cc1	102	103
COc1cc(OC)c(NC(=O)c2c(N3CCCC3=O)c3cc(C)ccc3n2C)cc1Cl	110	107
CSc1ncc(Cl)c(C(=O)Nc2nc3ccc(F)cc3s2)n1	107	113
Cc1cccc(C)c1NC(=O)CCS(=O)(=O)c1ccc2c(c1)CC(C)N2C(=O)C1CC1 (stereo not given)	107	106

# A draw from above in order of count of non-hydrogen atoms, smallest number first.
SMILES	PV pol inh intensity	PV pol inh
CSc1ncc(Cl)c(C(=O)Nc2nc3ccc(F)cc3s2)n1	107	113
O=C(Nc1nc2ccc(Cl)cc2s1)c1ccc(S(=O)(=O)N2CCCC2)cc1	100	112
COc1cc(OC)c(NC(=O)c2c(N3CCCC3=O)c3cc(C)ccc3n2C)cc1Cl	110	107

# (continued)
SMILES	PV pol inh intensity	PV pol inh
Cc1ccc(NC(=O)c2sc(-n3nc(C)c(CCC(C)C)c3C)nc2C)cc1C	98	105
CC(C)OCCCn1c(=O)c2ccccc2n2c(-c3ccc(F)cc3)nnc12	111	108
Cc1c(NC(=O)Nc2cccc(C(F)(F)F)c2)sc2nc3n(c(=O)c12)CCC(C)CC3 (stereo not given)	107	103
CCOC(=O)c1c(C)oc2nc(C)nc(NCc3ccc(C)cc3)c12	102	105
Cc1oc(-c2ccc(C(=O)NCCCOC(C)C)cc2)nc1CS(=O)(=O)c1ccccc1	105	109
CCc1ccccc1NC(=O)Cn1c(=O)oc2ccccc21	114	109
COc1cc(OC)c(OC)cc1CNCCCSc1nnnn1C	112	109
O=C(c1nc(-c2ccc(Cl)cc2)n2c1CCCCC2)N1CCN(c2ccccc2)CC1	112	108
CCC(C(=O)Nc1ccc(C(C)C)cc1)n1nc(C)n2c(cc3cc(C)ccc32)c1=O (stereo not given)	111	107
Cc1ccc(C)c(NC(=O)Nc2cccc(-c3cn4cccnc4n3)c2)c1	112	108
O=C(NCc1c(-n2cccc2)sc2c1CCCC2)Nc1cccc(C(F)(F)F)c1	109	109
FC(F)(F)c1cc(-c2ccccc2)nc2cc(-c3ccccc3)nn12	109	107
CCCOc1ccc(OC(=O)c2sc3ncn(Cc4cccc(F)c4)c(=O)c3c2C)cc1	96	105
CC(=O)N1CCc2cc(S(=O)(=O)NC(CC(C)C)C(=O)NCc3ccccc3Cl)ccc21 (stereo not given)	110	107
Cc1nc(N2CCOCC2)c2c(C(=O)N3CCN(c4cc(Cl)ccc4C)CC3)c(C)oc2n1	113	112
COc1ccc(-c2cnc(NCc3ccc(C)cc3)n2C)cc1	97	100
CSc1cccc(-c2nnc(NC(=O)c3ccc4c(c3)OCCO4)o2)c1	119	112
CCn1cc(CCC(=O)NCc2ccc(F)cc2)c2ccccc21	104	110
COc1cccc(NC(=O)Cn2c(=O)n(CC(=O)NCc3ccc(C)cc3)c(=O)c3sccc32)c1	106	108
Cc1ccc(/C=C/C(=O)Nc2ccc(S(N)(=O)=O)cc2)o1	110	110
Cc1ccc(NC(=O)C(=O)NCC(c2ccc3c(c2)OCO3)N2CCOCC2)cc1C (stereo not given)	98	109
CCCCNC(=O)c1nn(-c2ccc(CC)cc2)nc1CO	104	102
COc1ccc(C)cc1NC(=O)CSc1ccc(-c2ccccn2)nn1	65*	81*
CCCCSc1nnc2c(n1)OC(C)N(C(C)=O)c1ccccc1-2 (stereo not given)	111	110

# Of the compounds above, these have an NH in an aromatic ring:
SMILES	PV pol inh intensity	PV pol inh
Cc1ccc2ccc3cc(C(=O)Nc4ccc(C)c(F)c4)nc3c2[nH]1	107	102
O=C(CSc1nc2c(c(=O)[nH]1)CN(Cc1ccc3c(c1)OCO3)CC2)Nc1ccccc1Cl	116	116

# Carrying on:
SMILES	PV pol inh intensity	PV pol inh
CCCCCn1c(=N)c(S(=O)(=O)c2ccccc2)cc2c(=O)n3cccc(C)c3nc21	113	108
Cc1ccc(NC(=O)c2sc(-n3nc(C)c(Cc4ccc(Cl)cc4)c3C)nc2C)cc1	101	107
Cc1c(Cl)cccc1NC(=O)CSc1nc(=O)n(Cc2cccnc2)c2c1CCC2	106	109
CC(=O)c1cccc(NC(=O)Cc2ccc(NC(=O)N3CCCCc4ccccc43)cc2)c1	108	108
CC(=O)c1ccc(N2CCN(C(=O)C3CCN(S(=O)(=O)c4cn(C)cn4)CC3)CC2)cc1	114	106
COc1cc(C(=O)Nc2ccc3nc4n(c(=O)c3c2)CCCCC4)cc(OC)c1OC	110	109
Cc1ccc(Cn2c(CNC(=O)Cc3cccc([N+](=O)[O-])c3)nc3cccnc32)cc1	110	98
COc1cccc2cc(-c3nnc(Nc4ccccc4C)s3)c(=O)oc12	110	110
CCOc1ccc(NC(=O)Cn2cc(C(=O)c3ccc(OCC)cc3)c(=O)c3cc4c(cc32)OCCO4)cc1	105	104
O=C(Cn1c(=O)n(-c2ccccc2)c(=O)c2c3c(sc21)CCC3)c1ccc(F)cc1	104	102
O=c1cc(COc2ccccc2Cl)nc2scc(-c3ccccc3)n12	118	112
COc1ccccc1OC(C)C(=O)Nc1ccc(-c2nc3ccccc3s2)cc1 (stereo not given)	109	110
CCOc1ccc(-c2nn(CC(=O)NC3CCCC3)c3c2cnc2ccc(C)cc23)cc1	114	104
O=c1c2oc3ccccc3c2n(Cc2cccc(Cl)c2)c(=O)n1Cc1ccco1	107	106
Cc1ccc(NC(=O)CN2C(=O)c3ccccc3Sc3ccc(C(=O)N4CCOCC4)cc32)cc1C	100	101
COc1ccc(S(=O)(=O)n2nc(-c3ccco3)nc2NCc2ccc(N(C)C)cc2)cc1	111	107

# Random excerpt: 5 records from the list
SMILES	PV pol inh intensity	PV pol inh
Cc1cccc(C)c1NC(=O)CCS(=O)(=O)c1ccc2c(c1)CC(C)N2C(=O)C1CC1 (stereo not given)	107	106
Cc1c(NC(=O)Nc2cccc(C(F)(F)F)c2)sc2nc3n(c(=O)c12)CCC(C)CC3 (stereo not given)	107	103
Cc1ccc(NC(=O)CN2CCN(C3CCCCC3)C(=O)C2=O)cc1C	108	105
COc1cc(OC)c(NC(=O)c2c(N3CCCC3=O)c3cc(C)ccc3n2C)cc1Cl	110	107
Cc1c(Cl)cccc1NC(=O)CSc1nc(=O)n(Cc2cccnc2)c2c1CCC2	106	109

# Further structures
SMILES	PV pol inh intensity	PV pol inh
COc1ccc(-c2cn(-c3ccc(C)cc3)c(S(=O)(=O)CC(=O)Nc3ccccc3)n2)cc1	97	100
CC1=Nc2cc(C(=O)NC3CCCC3)ccc2Sc2ccc(C)cc21	112	112
COc1ccccc1C(=O)NC(=O)Nc1ccc(-c2cc(C(F)(F)F)nn2-c2ccccc2)cc1	102	98
Cc1ccc(-c2nc3ccccc3[nH]2)cc1NC(=O)COc1cccc(C)c1C	103	102
Cc1ccccc1Nc1c(-c2ccccc2)nc2cccc(C)n12	113	108
Clc1cccc(-n2ncc3c(NC4CCCCC4)ncnc32)c1	100	113
CCCCNC(=O)CN1C(=O)COc2ccc(S(=O)(=O)N3CCCCCC3)cc21	107	107
O=C(NCC(c1ccc2c(c1)OCO2)N1CCOCC1)C(=O)Nc1cccc(Cl)c1 (stereo not given)	113	107
Cc1cccc(C2CC(=O)Oc3c2c(=O)oc2ccccc32)c1 (stereo not given)	94	98
Cn1c(=O)c2c(nc(Oc3ccccc3)n2Cc2c(Cl)cccc2Cl)n(C)c1=O	109	107
CCOc1ccc(C(=O)N2CCC(c3nc4ccccc4o3)CC2)cc1	112	107
CCN1c2ccccc2-c2nc(SCC(=O)Nc3cc(C)c(Cl)cc3OC)ncc2S1(=O)=O	121	109
CCn1c(C(=O)N2CCCC(C(=O)NCCCOC)C2)cc2sccc21 (stereo not given)	106	101
Cc1ccc(-n2nc(C(=O)Nc3ccc(C)c(F)c3)c3c4ccccc4n(C)c3c2=O)cc1	105	104
COc1ccc2oc(=O)cc(CN3CCN(Cc4ccccc4)CC3)c2c1	108	102
COc1cc(C2CC(=O)Nc3c2c(=O)n(C)c(=O)n3C)cc(OC)c1OC (stereo not given)	116	106
O=C(Nc1ccccc1C(F)(F)F)N1CCC(CN2CCc3ccccc3C2)CC1	112	117
Cc1ccc(C)c(S(=O)(=O)c2cn(Cc3ccccc3)c3cc(F)c(F)cc3c2=O)c1	111	107
O=C(CN1C(=O)C2CCCCN2c2ccc(C(=O)N3CCCC3)cc21)NCc1ccccc1F (stereo not given)	103	106
Cc1ccc(-c2nc3ccc(Cl)cn3c2Nc2ccc3c(c2)OCCO3)o1	112	107
CCc1ccccc1NC(=O)CCn1nc(C)c2c(C)n(-c3ccccc3)nc2c1=O	108	105
O=C(Cn1cc(S(=O)(=O)c2ccc(Cl)cc2)c(=O)c2ccccc21)Nc1ccc2c(c1)OCO2	106	104
